# Screens as filed in PubChem BioAssay.
# gsp ag: activates gsp, the McCune-Albright syndrome mutation. gsp mutant cells, cAMP HTRF, 30 min; control for the full effect not named in the record. Potency, µM (series often up to 76.9 µM), for inactives: at the top dose activation (cAMP increase), hits mostly activators. 0.13% of 340,000 active. AID 624287; active = well fitted activation curve with a large enough effect; inconclusive = small, poorly fitted or top-dose-only effect, or another doubt; inactive = no such curve, though single readings can be large or run the other way; cell line not stated here;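 also: phosphodiesterase inhibitor Ro 20-1724 added with compounds to block cAMP breakdown; potency is read from the fitted curve at half-maximal effect; nearly all actives have a fitted effect of over 60% in size; about a fifth of the inactives were tested at one dose only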
#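 Cells stably selected in G418 were plated at 2000/well, grown 16-24 hr, then given compounds in DMSO with the PDE inhibitor […] (300 uM solution added) for 30 min at 37C; cAMP was read by HTRF.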
# ClpP mod: qHTS Assay for Activators of ClpP; ATP-dependent Clp protease proteolytic subunit (Bacillus subtilis (strain 168)), P80244; purified B. subtilis ClpP, FRET peptide cleavage, 20 min; Potency, µM (titrated, usually from 57.5 µM), inactives show top-dose activity change, negative = active; 1.9% of 340,000 active; active = well fitted falling curve with a large enough effect; inconclusive = small, poorly fitted or top-dose-only effect; inactive = no such curve, though single readings can be large or run the other way; also: potency is read from the fitted curve at half-maximal effect; the source files actives as falling curves though it sought activators and does not explain the sign; nearly all actives have a fitted effect of over 65% in size; many hits overshoot -100%
# Target sequence (P80244 whole entry, looked up): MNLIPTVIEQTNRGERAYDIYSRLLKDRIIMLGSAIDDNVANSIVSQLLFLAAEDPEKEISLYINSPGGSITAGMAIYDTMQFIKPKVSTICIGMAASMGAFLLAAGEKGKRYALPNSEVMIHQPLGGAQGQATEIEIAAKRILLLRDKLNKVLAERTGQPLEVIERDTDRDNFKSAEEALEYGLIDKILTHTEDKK
#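 Buffer: 100 mM Tris/HCl pH8, 100 mM KCl, 0.05% low protease BSA, 2.5% glycerol, 0.01% Tween-20. ClpP 10 microg/mL final; 20 min RT; delta FRET normalized to ADEP and DMSO controls.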
# TRPML1 agonist: human mucolipin-1 channel agonism; AID 624414; activation, % (concentration not given with the values); TRPML1-expressing cells, Ca2+ dye fluorescence, FDSS; host cell line not named in the record; reference of the full effect not given here; Q9GZU1; 0.12% of 410,000 active; in the data active = activation above about 50%; inconclusive = about 30% to 50%; inactive = below about 30%; also: 0% is about no effect; the text of the record puts the active cut at 80%
# Target sequence (Q9GZU1 whole entry, looked up): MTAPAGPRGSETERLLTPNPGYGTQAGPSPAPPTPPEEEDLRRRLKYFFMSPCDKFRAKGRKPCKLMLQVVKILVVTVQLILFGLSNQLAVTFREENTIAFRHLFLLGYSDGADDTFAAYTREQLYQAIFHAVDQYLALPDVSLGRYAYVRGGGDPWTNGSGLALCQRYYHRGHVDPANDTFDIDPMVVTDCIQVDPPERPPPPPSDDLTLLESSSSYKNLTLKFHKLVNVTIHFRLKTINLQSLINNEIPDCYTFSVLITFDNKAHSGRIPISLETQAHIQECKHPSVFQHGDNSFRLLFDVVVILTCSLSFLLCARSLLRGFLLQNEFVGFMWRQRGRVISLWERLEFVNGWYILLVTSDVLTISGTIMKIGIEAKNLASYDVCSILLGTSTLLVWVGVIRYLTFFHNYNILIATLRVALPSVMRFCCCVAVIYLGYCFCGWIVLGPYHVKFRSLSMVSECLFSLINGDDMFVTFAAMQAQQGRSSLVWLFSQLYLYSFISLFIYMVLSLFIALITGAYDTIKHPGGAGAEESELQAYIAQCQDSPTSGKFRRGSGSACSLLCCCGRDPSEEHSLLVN
#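 Calcium fluorescence on an FDSS kinetic reader gave the read-out. Tet-induced TRPML1-DL cells were plated overnight, dye-loaded (Ca8 with quencher, 45-90 min, room temperature, dark), then read 110 s after compound addition, and again 110 s after 4uM final 54-4 (EC80).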
# Menin MLL FP FL: inhibitors of human menin-MLL interaction, wild-type MLL peptide; Fluorescence polarization, fluorescein-MLL peptide displacement from menin; 290,000 tested, under 10 active; AID 1766; FP activity change, % at 61.4 µM; inconclusive = falling polarisation curve, or a change in total fluorescence; inactive = total fluorescence flat and polarisation flat or rising; no compound was filed as active; the % refers to the polarisation; negative = inhibition;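 also: % of control where 0% means no effect; inhibitors lower the polarisation; unlabelled MLL peptide was the positive control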
# gsp antag: antagonists of gsp mutant (McCune-Albright syndrome) | gsp-mutant cells, cAMP HTRF, 30 min; control for the full effect not named in the record | Potency, µM (series often up to 76.9 µM), for inactives: top-dose activity change, negative = inhibition, hits mostly inhibitors | 0.4% of 340,000 active | AID 624288; active = falling curve of any shape with a large fitted effect; inconclusive = falling curve, mostly with a smaller effect; inactive = flat or rising curve; cell line not stated here;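 also: intracellular cAMP measured with PDE inhibitor Ro 20-1724 present during compound exposure; potency is read from the fitted curve at half-maximal effect; % is scaled to controls: 0 for no effect and ±100 for the full control effect; nearly all actives have a fitted effect of over 65% in size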
#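 Cells, 2000/well, grown 16–24 h in DMEM 10% FBS with 0.5 mg/ml G418, then compounds plus […] (300 uM addition stock), 30 min at 37C. cAMP read by HTRF (cAMP-d2 and anti-cAMP antibody-K in lysis buffer) after 30 min RT.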
# TRPML1 blocker: inhibitors of human TRPML1 channel; 0.02% of 390,000 active; Q9GZU1; TRPML1-inducible cells, Ca2+ dye fluorescence, FDSS; stronger effect = lower value; inhibition of EC80 agonist-evoked calcium signal; activity change, negative = inhibition, % (test concentration not listed); in the data active means activity change below about -50%; inconclusive means about -30% to -50%; inactive means above about -30%;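 also: stimulus is agonist 54-4 at its EC80 concentration; % is scaled to controls: 0 for no effect and ±100 for the full control effect; compound concentration not given in the record; the text of the record puts the active cut at -80%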
#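 Calcium fluorescence in TRPML1-DL cells induced overnight with Tet: a 110 s read after compound pin addition, then a 110 s antagonist read after challenge with 54-4 at 4 uM final (EC80).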
# Active calls of the source: *; ? = inconclusive; / = not tested or not shown; & = joins results of further samples; [ ] = another dose, or the depositor's remark. This is a random part of the collection (roughly 2.1% active in at least one column).
Molecule,gsp ag,ClpP mod,TRPML1 agonist,Menin MLL FP FL,gsp antag,TRPML1 blocker
CCOC(=O)NC(=O)COC(=O)CCCSc1nc2ccccc2s1,23%[15.4 µM],-0.2%,-0.4,0.3,-3%,-6
Nc1nc(CN2CCN(c3cccc(Cl)c3)CC2)nc(N2CCCc3ccccc32)n1,1%,-0.5%,1.0,3.3,14%,-16
Cc1cc(Cl)ccc1NC(=S)NC(C)(C)C,-5%,2.1%,1.3,-1.3,-13%,15
O=C(NCc1ccco1)C(=O)c1cn(CC(=O)N2CCCCC2)c2ccccc12,5%[15.4 µM],0.0%,0.5,-1.1,2%,3
CSc1ccccc1NC(=O)Nc1cccc(Cl)c1C,?,0.7%,1.2,0.9,-10%,3
COc1ccc(-c2cc3c(=O)n(CC(=O)NCc4ccccc4OC)ncn3n2)cc1,-31%[inhibitor],-9.7%,-0.4,2.0,5%,1
COc1cc2c(cc1OC)CN(C(=O)CSc1ccc(F)cc1)CC2,-7%,-3.6%,-1.1,/,2%,-15
Cc1ccc(N(C)S(=O)(=O)c2cccc(C(=O)Oc3ccc4c(C)cc(=O)oc4c3)c2)cc1,-6%,0.2%,2.0,-1.6,9%,-9
O=S(=O)(c1ccc(N=C2NN=C(c3cc(F)ccc3F)CS2)cc1)N1CCOCC1,-35%,/,0.4,0.6,-3%,3
NC(N)=N/N=C/c1c(Cl)cccc1Cl,/,-0.4%&-0.3%,-0.4&0.8,1.6&8.0&7.9&-4.8,0%&-3%,0&9
CCOC(=O)C1CCN(C(=S)Nc2ccc(CC)cc2)CC1,1%[15.4 µM],-0.9%,0.4,-1.0,3%,39
CN(CC(=O)Nc1ccccc1C(F)(F)F)C(=O)c1cc2c(s1)CCCCC2,-1%[15.4 µM],/,3.0,/,-6%,10
O=C(Cn1nnc(N2CCCCC2)n1)c1ccc(Cl)c(Cl)c1,-24%,1.5%,0.3,1.1,1%,1
CC(C)(C)C(=O)Nc1ccccc1C(=O)N1CCCC1,-1%,0.4%,-0.8,3.2,-3%,-14
Cc1ccc(Oc2nc3ccccc3n3cccc23)cc1,11%,22µM*,-0.2,0.4,-1%,22
CCOC(=O)c1sc(=NC(=O)c2ccccc2)n(C)c1C,-12%[15.4 µM],/,-0.4,-4.3,8%,-28
O=C(NCCOC(=O)c1ccc(Cl)cc1)c1cccnc1,10%,0.9%,-0.4,0.9,-1%,?
CC(=O)c1cccc(NC(=O)CCN2C(=O)C3C4CCC(C4)C3C2=O)c1 (centres undefined),-4%[15.4 µM],-3.1%,0.5,/,7%,-8
Cc1nn(-c2ccccc2)c2c1N(CC(=O)N1CCN(c3ccccc3F)CC1)C(=O)CS2,/,-0.7%,0.9,/,/,1
CCOC(=O)N1CCN(C(=O)c2ccc(N(Cc3ccc(C)cc3)S(C)(=O)=O)cc2)CC1,-24%,0.4%,0.7,1.3,-19%,?
Cc1cccc2c(N=NC(=O)C(C)n3cnc4ccccc4c3=O)c(O)[nH]c12 (centres undefined),-7%[15.4 µM],/,-0.4,/,6%,-8
COc1ccc(NC(=O)CN(C)C(=O)c2csc3c2CCCC3)cc1,-29%,-1.9%,-0.5,/,-12%,-14
O=C1N/C(=C/c2cccn2-c2ccccc2)C(=O)N1c1cccc(Cl)c1,25%,0.1%,-0.7,2.7,-9%,-6
O=c1cc(CSc2ccccc2)nc(-c2ccccc2)[nH]1,-2%[15.4 µM],/,1.2,6.6,-6%,-6
CC(C)(C)c1ccc(NC(=O)COC(=O)c2ccc(NS(=O)(=O)c3ccc(F)c(F)c3)cc2)cc1,0%,-5.0%,4.0,3.4,?,-10
Cc1nnc(SCC(=O)N2c3ccccc3CC2C)s1 (centres undefined),-7%,0.1%,-0.1,-1.9,8%,-5
COc1ccc(OC)c(CCNC(=O)CS(=O)(=O)Cc2nc(-c3ccc(C)cc3)oc2C)c1,-13%,-1.7%,1.3,4.0,-20%,-8
Cc1cccc(C(=O)N(NC(=O)Oc2ccccc2)C(C)(C)C)c1,-12%,1.1%,1.2,/,8%,-15
CC1=NN(c2ccccc2)C(=O)/C1=C\C=C1\N(C)c2ccccc2C1(C)C,-25%,2.2%,16,?,-10%,-3
Cc1ccccc1-c1nnc(CN2CCN(c3cc(Cl)ccc3C)CC2)o1,/,-0.9%,1.1,/,/,9
CCOC(=O)C1CCCN(c2c(NCCC(C)C)c(=O)c2=O)C1 (centres undefined),-1%[15.4 µM],/,0.6,4.0,-9%,-8
O=C(NCc1ccccc1)c1ccc(F)c(S(=O)(=O)N2CCOCC2)c1,-41%[inhibitor],0.0%,1.4,-0.9,8%,29
Cc1c(CC(=O)O)c(=O)oc2c(C)c3occ(-c4ccc(Br)cc4)c3cc12,?,/,0.2,1.5,?,-24
CC(C)N(Cc1nc(-c2ccccc2)no1)C(=O)CCCN1C(=O)c2ccccc2C1=O,-40%[inhibitor],-1.7%,0.1,1.3,-12%,30
O=C(CCN1CCCCC1)Nc1ccccc1,1%,/,0.0,-0.4,9%,-9
C/C(CC(=O)Nc1c(C)cc(C)cc1C)=N\NC(=O)OC(C)(C)C,-16%,-4.9%,1.5,5.0,3%,3
O=C(C1CCN(S(=O)(=O)Cc2ccccc2)CC1)N1CCN(c2cccc(Cl)c2)CC1,/,-0.1%,-0.5,/,/,12
Cc1cc(=O)oc2cc(OCC(=O)N3CC[C@@]4(O)CCCC[C@H]4C3)ccc12,/,4.3%,/,0.3,-1%,/
Cc1ccc(CNC(=O)C2CCN(c3nn4c(=O)cc(C)nc4s3)CC2)cc1,13%,-3.7%,-1.2,0.6,-9%,0
O=C(CNCc1cccc2ccccc12)Nc1ccccc1[N+](=O)[O-],-4%[15.4 µM],-1.5%,0.9,-7.8,-14%,35
CCOC(=O)c1c(C)[nH]c(C)c1C(=O)CSc1nc2ccccc2n1CCOC,-8%,1.0%,1.9,-0.8,4%,29
COCCNC(=O)CN1C(=O)NC2(CCCc3ccccc32)C1=O (centres undefined),34%[15.4 µM],/,-0.5,4.9,7%,-11
CN1CCN(S(=O)(=O)c2ccc(NC(=O)COc3ccccc3)cc2)CC1,-5%,1.6%,0.2,-3.9,9%,0
CN(CC(=O)Nc1ccc(N2CCOCC2)cc1)CC(=O)Nc1ccc(Cl)cc1[N+](=O)[O-],-1%[15.4 µM],0.5%,0.2,-0.5,0%,7
Cn1c(=O)n(C)c2cc([N+](=O)[O-])c(N3CCN(C(=O)c4ccccc4Br)CC3)cc21,6%,/,-0.7,1.1,?,-14
CS(=O)(=O)NCc1nnc(SCc2ccccc2C(F)(F)F)o1,17%,-1.1%,0.3,4.4,9%,6
O=C(CNC(=S)N(CCCN1CCOCC1)Cc1cccs1)NCCCN1CCOCC1,-12%[15.4 µM],-1.2%,-0.1,1.1,9%,12
CC1CCc2c(sc3ncnc(SCC(=O)N(C)C4CCS(=O)(=O)C4)c23)C1 (centres undefined),?,2.2%,-1.5,/,-11%,-9
COc1cc(/C=N/N2C(=O)CSC2=S)ccc1O,-8%,0.4%,1.6,?,-22%,-15
CCN(CC)S(=O)(=O)c1cc(OC)ccc1N=Nc1ccc(O)c2ncccc12,32%,-2.0%,0.1,8.7,4%,-7
COCC1CCN(c2nc3nonc3nc2N2CCSCC2)C1 (centres undefined),-3%[15.4 µM],/,0.2,0.7,-2%,12
CCCc1[nH]nc2c1C(CCc1ccccc1)C(C#N)=C(N)O2 (centres undefined),?,-19%,3.3,1.7,-44%,2
O=C(Nc1cc(Cl)ccc1N1CCOCC1)c1ccc(Br)o1,-6%[15.4 µM],-0.3%,-0.6,/,-4%,1
CC(=O)Nc1ccc(/C=C2/Sc3ccccc3C2=O)cc1,1%,/,1.4,20,3%,12
Cc1cc(C)cc(CC2CC(=O)N(c3ccc4c(c3)OCCO4)C2=O)c1 (centres undefined),-22%,-0.4%,1.1,7.5,-7%,9
O=C(NCCN1CCCCC1)c1cccc2c1C(=O)c1ccc(N3CCCC3)cc1S2(=O)=O,-14%,-1.0%,8.7,/,-1%,-26
CCCCCCCCC#Cc1nc(C)ccc1OC,/,-9.3%,0.2,1.5[94.6 µM],-11%,13
CCOc1ccc(NC(=O)COc2ccc(C(=O)NCc3cccc(OC)c3)cc2OC)cc1,1%,2.2%,1.6,/,-4%,-1
CCCN1C(=O)c2[nH]nc(-c3ccc(F)cc3)c2C1c1ccc(O)c(OCC)c1 (centres undefined),/,0.3%,-0.7,/,/,8
C=CCNC(=O)NC(=O)COC(=O)/C(C#N)=C/c1ccc(OC)cc1,-2%[15.4 µM],2.5%,0.1,12,-3%,-14

# Additional results follow:
Molecule,gsp ag,ClpP mod,TRPML1 agonist,Menin MLL FP FL,gsp antag,TRPML1 blocker
Cc1ccc2c(c1)-c1c(cnn1CC(=O)N1CCN(c3cc(Cl)ccc3C)CC1)CO2,/,-0.9%,0.2,/,/,-4
CCN1C[C@@H]2[C@@H]3C(=O)N(C)C(=O)[C@@H]3[C@](C)(C1=O)N2C(=O)c1ccc(C(F)(F)F)cc1,-5%,0.5%,-0.6,/,6%,-2
O=C(CSCc1ccc(Cl)cc1)Nc1ccccc1C(=O)N1CCOCC1,-1%,-0.8%,-0.5,-1.1,2%,-4
CCCCC(=O)Nc1cccc(NC(=O)c2ccccc2Br)c1,14%,0.9%,-0.6,0.4,-19%,11
Cc1ccc(CSCCNC(=O)CN(c2cccc([N+](=O)[O-])c2)S(C)(=O)=O)cc1,-33%[inhibitor],-1.1%,2.0,3.4,-13%,-13
CC1=C(C(=O)Nc2ccccc2)C(c2cccnc2)n2nc(SCc3ccccc3F)nc2N1 (centres undefined),/,-0.5%,0.3,/,/,27
O=C(C(Cc1ccccc1)n1cccc1)N1CCN(Cc2ccccc2)CC1 (centres undefined),-34%[inhibitor],1.4%,-0.4,-1.8,-1%,2
Cc1ccc(C)c(OCC(=O)OCC(=O)Nc2c(C)nn(-c3ccccc3)c2C)c1,-33%[inhibitor],1.6%,-0.7,/,-3%,5
Cc1ccc(C)c(C(=O)NCCN(C)C)c1,-34%,0.7%,0.1,2.4,21%,12
COC(=O)c1ccc(Cl)cc1NC(=O)N1CC=C(c2c[nH]c3ccccc23)CC1,/,28µM*,3.8,/,/,1
CC(=O)Nc1sc(C)c(C)c1C(=O)OCC(=O)N(C)c1c(N)n(Cc2ccccc2)c(=O)[nH]c1=O,-2%,-1.1%,-0.5,/,0%,5
CC(C)OC(=O)C1C2C=CC3(CN(Cc4cccs4)C(=O)C13)O2 (centres undefined),-4%,-0.4%,-0.5,-0.2,4%,28
